T cruzi inh: blocks replication of Trypanosoma cruzi. T. cruzi beta-gal in NIH3T3, luminescence, 90 h. inhibition, % (test concentration not listed). 1.4% of 300,000 active;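 active = mean inhibition across valid replicates above about 55%, limit read from the data; inconclusive = mean below that limit but half or more replicates reach it; inactive = mean below it, under half of replicates reach it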;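 also: signal also drops with host cell toxicity which is not excluded here; 0% = plate median of DMSO wells and 100% = zero luminescence signal; higher percent means less beta-gal luminescence so fewer parasites; stock transfer was 50 nL into about 50 µL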
ALR H2O2 inh: human ALR oxidase inhibition via reduced H2O2 | AID 485317 | 3.8% of 290,000 active | P55789 | inhibition, % (concentration not given with the values) | purified ALR, DTT oxidation, H2O2 HRP-luminol luminescence;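 active = mean and each replicate at 75% or more; inconclusive = only one of the two met; inactive = neither met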;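 also: stock transfer was 7.5 nL into about 7.5 µL; 0% = neutral wells and 100% = wells with inactivated enzyme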
Target sequence (P55789 whole entry, looked up): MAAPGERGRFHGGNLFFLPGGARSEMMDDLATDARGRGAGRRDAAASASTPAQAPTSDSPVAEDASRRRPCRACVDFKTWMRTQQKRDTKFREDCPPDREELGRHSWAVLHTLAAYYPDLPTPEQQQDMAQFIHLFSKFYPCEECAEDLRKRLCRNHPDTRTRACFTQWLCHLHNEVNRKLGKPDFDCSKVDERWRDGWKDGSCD
RanGTP-Imp inh: disruptors of Ran-importin-beta complex formation – biochemical, FRET, CFP-Ran, YFP-importin-beta, homogeneous, primary screen | cell-free CFP-Ran/YFP-importin-beta FRET ratio | inhibition, % (no concentration beside the values) | 1.1% of 300,000 active | AID 2216;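 active = most replicates above 15%; inconclusive = exactly half above 15%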;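 also: 0% = DMSO wells and 100% = Ran loaded with GDP instead of GTP; wells of about 40 µL received 100 nL stock; the first replicate is given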
Beta cell apopt: beta cell apoptosis inhibition. INS-1E cytokine-induced death, ATP luminescence, 48 h; percent of positive-control rescue, neutral wells zero. protection from apoptosis, % (no concentration beside the values). 0.8% of 300,000 active. AID 435005;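 active = all replicates at 75% or more, or half of them and the mean; inconclusive = half reach 75% but not the mean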;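 also: 0% = cytokine-treated negative control wells and 100% = positive control rescue; higher means more ATP so stronger rescue from cytokine killing; wells of about 40 µL received 100 nL stock; the first replicate is given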
AF4-AF9 inh: MLL-AF4/AF9 protein interaction inhibition | AlphaScreen, biotin-AF4 peptide binding to FLAG-AF9 | inhibition, % at 10 µM | P42568 | 0.47% of 350,000 active;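 active = every replicate reaching a set inhibition limit, whatever the replicate mean, cut at about 25% in these data; inconclusive = mean inhibition reaches that limit but some replicates miss it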;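 also: 0% = plate neutral control median and 100% = total signal loss; the record names both 10 and 1 µM as test concentration; the first replicate is given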
Target sequence (P42568 whole entry, looked up): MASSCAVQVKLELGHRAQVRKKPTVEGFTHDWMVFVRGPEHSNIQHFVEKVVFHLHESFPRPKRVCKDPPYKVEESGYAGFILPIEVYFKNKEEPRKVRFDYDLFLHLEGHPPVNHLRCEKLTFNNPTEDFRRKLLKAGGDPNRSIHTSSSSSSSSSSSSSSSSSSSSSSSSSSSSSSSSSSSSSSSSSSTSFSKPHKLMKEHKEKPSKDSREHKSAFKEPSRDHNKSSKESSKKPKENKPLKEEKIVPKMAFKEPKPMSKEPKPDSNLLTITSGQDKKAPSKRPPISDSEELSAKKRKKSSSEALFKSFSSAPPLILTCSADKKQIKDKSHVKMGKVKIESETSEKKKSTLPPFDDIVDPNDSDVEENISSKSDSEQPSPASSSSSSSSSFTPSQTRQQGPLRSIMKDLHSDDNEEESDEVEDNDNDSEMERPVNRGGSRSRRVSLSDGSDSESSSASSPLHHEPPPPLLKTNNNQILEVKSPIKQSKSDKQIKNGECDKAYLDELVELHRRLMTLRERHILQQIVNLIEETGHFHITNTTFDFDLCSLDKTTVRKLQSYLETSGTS
FGF22 binding: shifts melting point of recombinant human FGF22; Q9HCT0; recombinant FGF22 thermal shift, SYPRO orange fluorescence; percent of sucrose octasulfate shift, DMSO zero; calls only at 9.99 µM; 1.5% of 340,000 active; AID 651658;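 active = melting point raised past a set limit in the mean and every replicate; inconclusive = no clear call; three in four hits are not shown here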
Target sequence (Q9HCT0 whole entry, looked up): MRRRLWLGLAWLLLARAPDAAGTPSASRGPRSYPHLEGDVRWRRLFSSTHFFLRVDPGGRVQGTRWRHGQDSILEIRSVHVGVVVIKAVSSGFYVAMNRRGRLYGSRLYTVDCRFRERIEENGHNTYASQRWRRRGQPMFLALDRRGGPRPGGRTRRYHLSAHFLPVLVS
rRNA inh HTS: selective bacterial rRNA inhibition in E. coli; AID 720706; GFP signal change (wild-type ribosome), % (concentration not given with the values); E. coli WT GFP vs humanized-ribosome RFP mutants, fluorescence, 24 h; hits give low values; DMSO median 0, no signal -100; 1.6% of 350,000 active;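 active = significant combined selectivity score with lowered wild-type GFP, culture density cut under 30%, mutant RFP and density less affected; inactive = any of these conditions unmet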; also: one replicate is shown; some compounds called inactive have numbers as strong as hits
Calb FLC: C. albicans growth modulation with fluconazole | 0.57% of 300,000 active | growth inhibition, % (no concentration beside the values) | AID 1979 | C. albicans CaCi-2 (fluconazole-resistant clinical isolate) + fluconazole, Alamar Blue growth, 48 h;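 active = most replicates above 75%; inconclusive = exactly half above 75%; inactive = most below 75%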;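 also: all wells also contain fluconazole at 8 µg/ml as a sub-toxic cotreatment; 0% = median of DMSO wells and 100% = median of geldanamycin control wells; wells of about 8 µL received 7.5 nL stock; the first replicate is given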
rRNA inh HTS OD600: second read-out of rRNA inh HTS, no call of its own (marks repeat the call); OD600 change, %; measured here: OD600 growth;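 optical density of the mix in the first replicate; 0 = DMSO median and -100 = no signal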
rRNA inh HTS RFP: second read-out of rRNA inh HTS, no call of its own (marks repeat the call); RFP signal change, %; measured here: RFP humanized mutant strains;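 first replicate; 0 = DMSO median and -100 = no signal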
An asterisk follows results filed as active; i = inactive; ? = inconclusive; . = not tested or not shown; + = active, no number.

SMILES | T cruzi inh | ALR H2O2 inh | RanGTP-Imp inh | Beta cell apopt | AF4-AF9 inh | FGF22 binding | rRNA inh HTS | rRNA inh HTS OD600 | rRNA inh HTS RFP | Calb FLC
C[N+]1(CC(=O)Nc2ccccc2Cl)CCN(C(=O)c2cccs2)CC1 | -3 | . | ? | -3 | . | . | . | . | . | 8
Cc1nn(-c2ccccc2)c(Cl)c1/C=N/Nc1nc2ccccc2[nH]1 | 27 | 28 | 5.9 | 38 | -2.3 | i | -8 | -5 | 5.2 | -10
O=C(CCNS(=O)(=O)c1ccccc1)N1CCC(Cc2ccccc2)CC1 | 5 | 1 | -2.7 | 13 | 1.4 | i | -4 | -32 | 0.2 | -3
CCn1cc(CN2CCC(n3nccc3NC(=O)c3ccccc3C)CC2)cn1 | 40 | 0 | -5.2 | 0 | -2.4 | i | 2 | 14 | -1.7 | 1
CCOC(=O)N1CCN(Cc2nc3c(c(=O)[nH]c(=O)n3C)n2Cc2ccccc2C)CC1 | -10 | -2 | 2.9 | -1 | 7.1 | i | 1 | 2 | -2.2 | 3
Cc1ccc(-n2ncc3c(N4CCC5(CC4)OCCO5)ncnc32)c(C)c1 | -2 | -4 | -3.6 | . | -3.2 | i | -8 | -19 | -1.1 | 2
CC1CN(C(C)C(=O)NC(c2ccccc2)c2ccccc2)CC(C)O1 (stereo not drawn) | -8 | -2 | 5.2 | -15 | -0.4 | i | -2 | -4 | -1.9 | -1
Cc1ccc(C(CNC(=O)c2ccco2)N2CCN(C)CC2)cc1 (stereo not drawn) | -7 | -16 | -2.9 | . | 0.7 | i | 4 | 20 | -6.3 | 4
O=C(NC(c1cccnc1)C(F)(F)F)c1cc(COc2ccc3c(c2)CCCC3)on1 (stereo not drawn) | 14 | 18 | 1.9 | 107* | 1.7 | i | -12 | -7 | -2.4 | 11
CCN1CCN(C(=O)c2ccc(CNS(=O)(=O)c3cccc(OC)c3)cc2)CC1 | 11 | -13 | -4.0 | 1 | 0.4 | i | 10 | 9 | 1.7 | 15
Cc1cccc2cc(C#N)c(NCCNC(=S)NCCCN3CCOCC3)nc12 | 9 | -3 | 19* | -12 | . | . | . | . | . | 10
COc1cc(OC)nc(Oc2ccc(NC(C)=O)cc2)n1 | 4 | -21 | 2.6 | 1 | -3.6 | i | 13 | 8 | 0.7 | 36
CC(C)N1C(=O)NC2(c3ccccc3)N(C)C(=O)N(C)C12c1ccccc1 (stereo not drawn) | -17 | 0 | -1.2 | -2 | . | . | . | . | . | -2
CN(C)c1ccc(C2CC(c3cccc(NS(C)(=O)=O)c3)=NN2C(=O)c2ccccc2)cc1 (stereo not drawn) | 13 | 7 | -5.4 | 2 | 19 | i | 0 | 3 | -6.4 | 2
CCCCC(=O)NNC(=S)NC(=O)c1cccc([N+](=O)[O-])c1 | -7 | 98* | -0.7 | 6 | . | . | . | . | . | 16
CC(C)(C)c1cn(-c2ccc(Cl)cc2)c(=S)[nH]1 | -10 | 34 | 3.6 | 4 | . | . | . | . | . | -6
COCC(=O)N(Cc1cc2cc(C)ccc2[nH]c1=O)c1cccc(C)c1C | 11 | 82* | 1.8 | -3 | 1.8 | i | -2 | -1 | -1.3 | 5
O/N=C(\c1ccccn1)C1CC1c1ccccc1 (stereo not drawn) | -10 | -8 | 5.5 | -2 | 1.2 | i | -46 | -62 | -9.9 | -31
CN(C)CCNC(=S)Nc1ccc(Cl)cc1 | 11 | . | 6.0 | 0 | . | . | . | . | . | 6
Cn1[nH]c(C(F)(F)F)c(C=Nc2ccc(Cl)cc2)c1=O | 3 | 23 | 0.7 | 6 | 1.4 | . | 16 | 18 | -1.3 | -6
CCn1c(=O)c(C(=O)CN(C)Cc2ccc(F)cc2)c(N)n(Cc2ccccc2)c1=O | 12 | -6 | -0.4 | -5 | 0.3 | i | -5 | 0 | 0.5 | 6
COc1cc(CNC(=O)C2CCC(=O)N(C3CCCCCC3)C2)cc(OC)c1 (stereo not drawn) | 10 | -1 | -2.1 | -1 | 1.3 | i | 8 | 20 | -0.2 | 12
COc1ccccc1N(C)S(=O)(=O)c1ccc(Cl)c(C(=O)Nc2ccncc2)c1 | -2 | -14 | -1.8 | . | 6.9 | i | -15 | -38 | -4.0 | 7
CCN(CC)CCn1c2ccccc2c2cnc(N=CN(C)C)c(C#N)c21 | 39 | -3 | 0.2 | 5 | . | . | . | . | . | -11
CC(NC(=O)CN(C)Cc1cccc(Cl)c1)c1ccccc1 (stereo not drawn) | -3 | -1 | ? | -9 | -15 | i | -8 | -16 | 0.8 | 1
O=C(c1ccco1)N1CCN(c2cc(=O)n(-c3ccc(Cl)cc3)c(=O)[nH]2)CC1 | -8 | 23 | 48* | -1 | -8.2 | i | 8 | 9 | 0.6 | -1
CC(C)(OC(=O)c1ccc(C#N)cc1)c1cc2ccccc2c(=O)o1 | . | 55 | . | -11 | . | i | -4 | 4 | 0.9 | .
CCOC(=O)C1=C(C)N=c2s/c(=C\c3ccc(OCC(=O)O)cc3)c(=O)n2C1c1ccc(OC(C)C)cc1 (stereo not drawn) | -6 | ? | -7.6 | 7 | . | . | . | . | . | 26
CCCCOC(=O)Nc1ccc(S(=O)(=O)Nc2ncccn2)cc1 | -24 | -10 | 1.8 | . | -2.0 | i | 8 | 3 | -8.0 | 0
COCCCNC(=O)c1c(N)n(-c2ccccc2)c2nc3ccccc3nc12 | -1 | 24 | 87* | -4 | -6.1 | i | -33 | -60 | -3.1 | 20

The final two compounds of the section above are carried over, then new ones follow:
SMILES | T cruzi inh | ALR H2O2 inh | RanGTP-Imp inh | Beta cell apopt | AF4-AF9 inh | FGF22 binding | rRNA inh HTS | rRNA inh HTS OD600 | rRNA inh HTS RFP | Calb FLC
CCCCOC(=O)Nc1ccc(S(=O)(=O)Nc2ncccn2)cc1 | -24 | -10 | 1.8 | . | -2.0 | i | 8 | 3 | -8.0 | 0
COCCCNC(=O)c1c(N)n(-c2ccccc2)c2nc3ccccc3nc12 | -1 | 24 | 87* | -4 | -6.1 | i | -33 | -60 | -3.1 | 20
CCCc1nc2ccccc2c(=O)n1N | -10 | -8 | 4.3 | -1 | . | . | . | . | . | -6
COc1ccc(NC(=O)CCCn2c(=O)c3sccc3n(Cc3ccccc3)c2=O)cc1 | 5 | . | 0.8 | -6 | -0.1 | i | 10 | -4 | -5.2 | 3
Cc1nnc(SCC(=O)NC2CCCCCC2)n1C(C)C | 3 | 2 | 1.3 | 0 | -0.9 | i | 5 | 9 | -0.5 | -6
CSc1ccc(/C=N/NC(=O)CN2CCN(Cc3ccccc3Cl)CC2)cc1 | -5 | . | -3.6 | 0 | . | . | . | . | . | 2
Cc1ccc(C(=O)Nc2ccc3c(c2)OCO3)o1 | -11 | -30 | -1.7 | 9 | . | . | . | . | . | 5
O=C(/C=C/c1ccccc1Cl)Nc1ccccc1 | 6 | -1 | 11 | 5 | 3.1 | + | . | . | . | -7
Cc1ccc(C)c(S(=O)(=O)NCc2ccc(C(=O)N3CCN(c4ccccc4)CC3)cc2)c1 | 20 | 2 | -2.0 | 2 | 1.0 | i | -22 | -23 | 5.3 | 9
Cc1ccccc1CN1C[C@@H]2C[C@@H](c3cn[nH]c3-c3ccccc3)N3CCC[C@@]23C1=O | 12 | -1 | 2.8 | -6 | 6.2 | i | -34 | -48 | -6.0 | 14
N#Cc1cc(NCC2CCCO2)c([N+](=O)[O-])cc1C#N (stereo not drawn) | -3 | . | 23* | 2 | . | . | . | . | . | 1
Cc1cc(NC(=O)C2C3C(=O)N(Cc4ccc(Cl)cc4)C(C(=O)NC4CCCCC4)C34C=CC2(C)O4)no1 (stereo not drawn) | -9 | -1 | 5.6 | -5 | . | . | . | . | . | -3
CCC(C)(C)NC(=O)C(OC(=O)c1ccco1)c1ccccc1F (stereo not drawn) | -10 | -8 | -3.5 | -9 | -0.2 | i | 2 | -9 | 2.6 | -24
CN(CC1COc2ccccc2O1)C(=O)c1cc(COc2c(F)cccc2F)on1 (stereo not drawn) | 5 | -14 | 2.2 | -15 | -1.8 | i | -36 | -46 | -3.2 | 9
COc1ccc(C2=Nn3c(nnc3-c3ccco3)SC2)cc1 | -2 | 0 | 1.2 | 2 | . | . | . | . | . | 23
CCc1ccc(/C=C2\CN(CC)Cc3c2nc2ccccc2c3C(=O)O)cc1 | -11 | -52 | -1.5 | -4 | . | . | . | . | . | -1
Cc1ccccc1N1CC(C(=O)Nc2ccc(S(=O)(=O)N3CCCC3)cc2)CC1=O (stereo not drawn) | 1 | -10 | -3.5 | . | 0.0 | i | 11 | 6 | 1.4 | -2
O=c1c(Cl)c(O)c2cccc3c4ccccc4n1c23 | -2 | 99* | -1.8 | -17 | -6.6 | + | -13 | -27 | -2.6 | -2
Cc1ccc(N(CC(=O)Nc2cc(C)cc(C)c2)S(=O)(=O)c2cccc3nonc23)cc1 | 13 | -5 | -0.4 | . | . | . | . | . | . | ?
COc1ccccc1C(=O)C1CCCN(C(=O)Nc2ccccc2F)C1 (stereo not drawn) | -4 | 13 | 1.1 | -7 | -0.3 | i | -5 | -1 | -18 | -12
COc1ccc(-c2nc(CSCC(=O)NCc3ccc4c(c3)OCO4)c(C)o2)cc1 | 0 | -5 | -1.4 | -7 | -3.4 | i | -7 | -31 | -2.5 | -4
FC(F)(F)c1cccc(NC(=S)N2CCN(c3cccc(C(F)(F)F)c3)CC2)c1 | -16 | 3 | -3.2 | -18 | . | . | . | . | . | 1
Cc1ccc(C(C(=O)NC2CCCCC2)N(Cc2ccco2)C(=O)Cc2c[nH]c3ccccc23)o1 (stereo not drawn) | 32 | -14 | -1.6 | -6 | . | . | . | . | . | 36
O=C(NNC(=S)NC1CCCCC1)c1sc2ccccc2c1Cl | -17 | 28 | 0.7 | 7 | 2.6 | i | -20* | -1.3* | -0.1* | -1
CC(=O)CSc1nc(N)c(C#N)c(-c2cccs2)c1C#N | 5 | 4 | -0.6 | 8 | . | . | . | . | . | ?
COc1ccc(CNC(=O)CN(Cc2ccc(Cl)cc2)S(=O)(=O)c2ccccc2)cc1 | 2 | -1 | 2.6 | 10 | . | . | . | . | . | -4
O=C(Cc1ccccc1)Nc1nnc(-c2cccc([N+](=O)[O-])c2)s1 | 2 | 7 | -2.4 | -5 | . | . | . | . | . | 1
Fc1ccc(-c2onc3ccc(C4OCCO4)cc23)cc1 | -12 | 20 | -4.9 | -1 | -9.4 | i | 13 | 11 | -1.0 | 5
Nc1[nH]n(-c2c(Cl)cc(Cl)cc2Cl)c(=O)c1N=Nc1ccc(S(=O)(=O)Nc2ncccn2)cc1 | . | . | . | 1 | 0.1 | i | -4 | -6 | -1.3 | .
COc1cccc(CNC(=O)c2cccc(S(=O)(=O)N3CCN(c4ccc(F)cc4)CC3)c2)c1 | 13 | 16 | . | -12 | 10 | i | -1 | 3 | 1.1 | -1
CCNc1ccc(S(=O)(=O)N2CCCCC2)cn1 | . | -1 | . | -3 | 2.1 | i | 1 | 5 | -3.7 | .

A portion of the library; rates above refer to the full screens.
